Screening results deposited in PubChem BioAssay by several laboratories.
B2AR ag – beta2AR agonists driving receptor internalization, primary screen, cell-based, FAP fluorogen, flow cytometry; Beta-2 adrenergic receptor (Homo sapiens), P07550; actives 0.43% (n = 340,000); Am2.2-beta2AR cells; reference of the scale not given here; AID 504454, 2011; response, % (test concentration not listed);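 active = response above a set limit, near 3 SD of response in nonfluorescent compounds, cut at about 42% in these data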;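 also: stock transfer was 100 nL into about 11 µL; a reference agonist was the positive control; negative values mostly stem from fluorescent compounds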
HNF4A DNA FP – change in binding of human HNF4A to DNA, primary screen, biochemical, fluorescence polarization, FITC-DNA. AID 1224865, 2016. activity change, % at 10 µM. Hepatocyte nuclear factor 4-alpha (Homo sapiens), P41235. 1 h. actives 0.3% (n = 360,000); in the data active = activity change above about 30%, passing the limit was not always enough;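 also: controls were the assay level and a saturating level of protein; the project sought stronger binding though the title names inhibitors; some compounds called inactive have numbers as strong as hits; positive values seem to mean higher polarization but the record does not say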
Target sequence (P41235 whole entry, looked up): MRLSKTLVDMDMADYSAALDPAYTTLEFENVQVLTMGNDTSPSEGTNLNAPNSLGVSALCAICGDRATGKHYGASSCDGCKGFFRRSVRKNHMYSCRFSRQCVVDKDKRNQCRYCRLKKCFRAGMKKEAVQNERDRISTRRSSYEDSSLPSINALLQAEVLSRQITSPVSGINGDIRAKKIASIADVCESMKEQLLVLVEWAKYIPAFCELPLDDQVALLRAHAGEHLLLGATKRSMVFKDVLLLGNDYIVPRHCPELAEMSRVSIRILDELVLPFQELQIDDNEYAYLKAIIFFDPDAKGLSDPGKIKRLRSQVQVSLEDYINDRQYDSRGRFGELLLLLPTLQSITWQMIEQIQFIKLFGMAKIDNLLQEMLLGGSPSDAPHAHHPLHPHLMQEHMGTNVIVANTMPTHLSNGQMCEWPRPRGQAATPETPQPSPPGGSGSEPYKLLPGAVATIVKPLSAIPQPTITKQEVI
ALR H2O2 inh – inhibitors of human ALR sulfhydryl oxidase, primary screen, biochemical, H2O2 detection, HRP-luminol luminescence, single point; FAD-linked sulfhydryl oxidase ALR (Homo sapiens), P55789; purified ALR, DTT oxidation; inhibition, % (no concentration beside the values); actives 3.8% (n = 290,000); AID 485317, 2010;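 active = mean and each replicate at 75% or more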;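 also: stock transfer was 7.5 nL into about 7.5 µL; 0% = neutral wells and 100% = wells with inactivated enzyme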
Target sequence (P55789 whole entry, looked up): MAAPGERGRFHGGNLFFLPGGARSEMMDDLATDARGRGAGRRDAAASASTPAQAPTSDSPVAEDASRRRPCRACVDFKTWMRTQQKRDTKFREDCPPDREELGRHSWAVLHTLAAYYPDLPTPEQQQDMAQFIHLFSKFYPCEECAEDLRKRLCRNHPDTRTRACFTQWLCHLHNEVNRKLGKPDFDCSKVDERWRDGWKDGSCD
FGF22 binding – binders of human FGF22 protein, primary screen, FGF22 synaptogenesis inhibitor project, biophysical, thermal shift, single point | AID 651658, 2012 | recombinant FGF22 thermal shift, SYPRO orange fluorescence; percent of sucrose octasulfate shift, DMSO zero | calls only at 9.99 µM | actives 1.5% (n = 340,000);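 active = melting point raised past a set limit in the mean and every replicate; three in four hits are not shown here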
LANA-H2B inh – blockers of LANA interaction with H2A/H2B – biochemical, FP readout, HTS, primary screen | Protein LANA1 (Human herpesvirus 8 type P (isolate GK18)), Q9QR71 | cell-free LANA-H2A/H2B peptide, fluorescence polarization | inhibition, % (no concentration beside the values) | actives 0.6% (n = 320,000); in the data active = inhibition mostly above about 10%, no sharp cut-off; inactive = mostly below about 6.7%;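 also: stock transfer was 7.5 nL into about 10 µL; 0% = median of vehicle wells and 100% = median of positive control wells; one replicate is shown; the record names a cut of 25% in any replicate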
Ecoli growth – E. coli growth inhibition, primary screen, OD600 | Escherichia coli growth, 23 h; stronger effect = lower value | OD600 absorbance (no concentration beside the values) | actives 0.21% (n = 330,000);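 active = OD600 absorbance below the run mean of sample wells minus 3.6 SD, in any replicate, cut at about 0.56 in these data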;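 also: stock transfer was 300 nL into about 60 µL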
UCH37 DUB inh – inhibitors of human UCH37 deubiquitinase, primary screen, biochemical, Ub-AMC cleavage, fluorescence | Ubiquitin carboxyl-terminal hydrolase isozyme L5 (Homo sapiens), Q9Y5K5 | purified proteasome/UCH37 | inhibition, % (no concentration beside the values) | actives 0.33% (n = 330,000) | AID 588478, 2011;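 active = mean of two replicates above 20%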;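 also: 0% = compound-free wells with enzyme and 100% = wells lacking proteasome; stock transfer was 100 nL into about 20 µL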
Target sequence (Q9Y5K5 whole entry, looked up): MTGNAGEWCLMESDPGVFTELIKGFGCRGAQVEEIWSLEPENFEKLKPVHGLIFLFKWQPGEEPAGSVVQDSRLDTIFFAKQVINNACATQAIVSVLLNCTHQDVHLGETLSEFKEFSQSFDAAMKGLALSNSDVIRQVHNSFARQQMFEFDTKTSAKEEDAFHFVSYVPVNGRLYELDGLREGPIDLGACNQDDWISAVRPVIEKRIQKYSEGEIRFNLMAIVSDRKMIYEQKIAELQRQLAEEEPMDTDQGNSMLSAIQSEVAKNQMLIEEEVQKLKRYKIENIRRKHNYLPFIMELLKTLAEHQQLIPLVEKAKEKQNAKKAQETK
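Material: human UCH37 enzyme supplied as purified proteasome complex. Measure: % inhibition of Ub-AMC cleavage fluorescence. Medium: pH 7.4 Tris-HCl (50 mM) with ovalbumin, ATP-MgCl2, DTT. Times: 30 min preincubation with enzyme, 25 min cleavage at room temperature. Detection: AMC fluorescence intensity at 355/460 nm.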
* hit, by the source's call; i = inactive; / = no result given. This is a subset, so the mix of outcomes need not match the whole.

SMILES | B2AR ag | HNF4A DNA FP | ALR H2O2 inh | FGF22 binding | LANA-H2B inh | Ecoli growth | UCH37 DUB inh
Cc1ccc(Cn2nnc3c(=O)[nH]c(C4CCCN(S(=O)(=O)c5ccccc5F)C4)nc32)cc1 (centres undefined) | -1 | 1.1 | -7 | i | -2.1 | 0.7 | 1.6
O=C(COc1ccccc1F)N1CCCc2ccccc21 | -3 | 2.6 | -11 | i | -2.0 | 0.66 | 2.2
Cc1cccc(OCC(=O)N2CCCc3ccccc32)c1 | 4 | 2.2 | / | i | -1.8 | 0.72 | -2.0
CC1=C(C(N)=O)C(c2ccc(Cl)c(Cl)c2)n2ncnc2N1 (centres undefined) | -1 | -2.6 | -11 | i | 3.1 | 0.68 | -4.0
Cc1cc2c(nn1)CCc1nonc1-2 | -3 | 5.4 | -12 | i | -1.6 | 0.73 | -2.5
O=C(c1cccs1)N(Cc1cc2ccccc2[nH]c1=O)CC1CCCO1 (centres undefined) | 4 | -5.1 | 4 | / | -0.5 | 0.71 | -4.0
CCOC(=O)N1CCC(NC(=O)Cn2cccc2C(=O)c2ccccc2C)CC1 | -7 | 0.3 | / | / | 0.3 | 0.7 | -0.3
O=C(Nc1cccc2c1CCCC2)c1cc([N+](=O)[O-])ccc1Cl | -3 | 0.4 | -6 | / | 0.2 | 0.68 | 2.3
CC(C)(C)C(=O)C(Oc1cccc2nonc12)n1cncn1 (centres undefined) | 1 | 2.7 | -4 | i | 6.6 | 0.65 | -13
Cc1cc(C)nc(N/N=C/c2c(CO)cnc(C)c2O)n1 | 5 | 1.1 | 9 | i | 3.2 | / | /
CC(=O)c1ccc(OCCCCOc2ccc(C(C)=O)cc2)cc1 | 5 | -2.9 | -11 | i | -0.3 | 0.68 | 0.7
Cc1cc([N+](=O)[O-])cnc1Sc1nccn1C | 12 | 5.2 | 8 | i | 0.8 | 0.7 | 4.5
Cc1nnc(SCC(=O)NCCN2C(=O)CSC2=O)s1 | 1 | 0.0 | / | / | -4.5 | 0.72 | -1.4
Cc1nnc(SCC(=O)NNC(=O)c2ccc(F)cc2)n1Cc1ccccc1 | -4 | -1.3 | 1 | / | 6.9 | 0.66 | 1.5
CC(C)(C)c1ccc(Cn2nnc3c(=O)[nH]c(C4CCCN(C(=O)c5cccs5)C4)nc32)cc1 (centres undefined) | -2 | 1.1 | -5 | i | -0.2 | 0.69 | 4.6
CC(=O)Nc1ccc(SCC(=O)NCC2(N3CCCCC3)CCCCC2)cc1 | 4 | 5.6 | 99* | / | 0.6 | 0.71 | 3.7
COc1ccc(-c2ccnc3c(Br)c(C)nn23)cc1 | -2 | 1.3 | / | i | -7.4 | 0.72 | -0.8
COc1ccc(S(=O)(=O)Nc2ccccc2C(=O)N2CCOCC2)cc1OC | -1 | -5.2 | -5 | i | 4.4 | 0.67 | 0.4
Nc1nonc1-n1nnc(C(=O)N/N=C/c2cccc(Cl)c2)c1CSc1ccc(Cl)cc1 | -1 | 5.4 | -1 | i | 3.6 | / | /
Cc1cc(C)cc(NS(=O)(=O)c2csc(C(N)=O)c2)c1 | -6 | 4.0 | -4 | i | -0.4 | 0.62 | -0.4
Cc1cc(NC(=O)COC(=O)C(C)Oc2ccc(Cl)cc2Cl)no1 (centres undefined) | 11 | -0.8 | -1 | i | 1.9 | / | /
CCN1CC2=C(OC(N)=C(C#N)C2c2cccs2)/C(=C/c2cccs2)C1 (centres undefined) | 19 | 9.9 | -9 | / | -2.2 | 0.67 | 0.1
Cc1ccc(NC(=O)COC(=O)c2ccc(F)cc2Cl)c(Br)c1 | 0 | 3.3 | -13 | i | 2.3 | 0.7 | 0.4
COC(=O)c1ccc(Cn2nnc3c(=O)[nH]c(C4CCCN(S(=O)(=O)c5ccc(C)cc5)C4)nc32)cc1 (centres undefined) | 33 | -1.6 | -7 | i | / | 0.7 | 2.6
CNc1cncc(C(=O)O)c1 | 0 | -0.2 | -11 | i | 3.9 | / | /

4 compounds already listed, arranged by formula weight, smallest number first.
SMILES | B2AR ag | HNF4A DNA FP | ALR H2O2 inh | FGF22 binding | LANA-H2B inh | Ecoli growth | UCH37 DUB inh
Cc1cc([N+](=O)[O-])cnc1Sc1nccn1C | 12 | 5.2 | 8 | i | 0.8 | 0.7 | 4.5
Cc1cc(C)cc(NS(=O)(=O)c2csc(C(N)=O)c2)c1 | -6 | 4.0 | -4 | i | -0.4 | 0.62 | -0.4
O=C(Nc1cccc2c1CCCC2)c1cc([N+](=O)[O-])ccc1Cl | -3 | 0.4 | -6 | / | 0.2 | 0.68 | 2.3
Cc1nnc(SCC(=O)NCCN2C(=O)CSC2=O)s1 | 1 | 0.0 | / | / | -4.5 | 0.72 | -1.4

Continuation:
SMILES | B2AR ag | HNF4A DNA FP | ALR H2O2 inh | FGF22 binding | LANA-H2B inh | Ecoli growth | UCH37 DUB inh
Cc1cc(C)cc(OCC(=O)NC(C)c2ccccc2)c1 (centres undefined) | -4 | -3.1 | -5 | i | -1.1 | 0.68 | 0.7
Cc1ccc(CNC(=O)c2ccc(N3CCC4(CC3)CC(c3ccccc3)=NO4)c(NC(=O)c3ccccc3)c2)cc1 | -3 | -4.9 | -1 | i | 2.4 | 0.74 | 0.7
CN(/N=C/c1c[nH]c2ccccc12)c1cnn(-c2ccc(F)c(Cl)c2)c(=O)c1Cl | -6 | 64* | -8 | / | -6.3 | / | /
CCN(c1ccccc1)S(=O)(=O)c1ccc(OC)c(NC(=O)CNCCc2ccccc2)c1 | -11 | -5.7 | / | i | -3.9 | 0.66 | -1.3
CCn1cc(C(=O)O)c(=O)c2cc(F)c(N3CCN(C(=S)NC(=O)c4ccc(Br)cc4)CC3)cc21 | 5 | 0.4 | -12 | / | 2.5 | / | /
O=C(N/N=C/c1cccnc1)C(O)c1ccccc1 (centres undefined) | 4 | 0.3 | -31 | i | -0.5 | / | /
Cc1ccc(S(=O)(=O)N(C)c2nonc2C)cc1 | -5 | -0.2 | -2 | / | -1.1 | 0.7 | 4.6
COc1ccc(NC(=S)N2CCN(Cc3ccccc3)CC2)c(OC)c1 | 2 | -0.2 | -13 | i | -3.4 | 0.68 | 1.3
Cc1cc(C)cc(N(CC(=O)NCc2ccco2)S(=O)(=O)c2ccccc2)c1 | -1 | -0.1 | 2 | i | -11 | 0.67 | 2.8
CCc1nnc(NC(=O)COc2ccc([N+](=O)[O-])cc2)s1 | -5 | -1.1 | -11 | i | -0.1 | 0.65 | 2.6
CCC(C)NCCC(=O)Nc1ccc(Cl)c(S(=O)(=O)Nc2ccc(Cl)cc2)c1 (centres undefined) | 5 | 3.5 | 1 | i | 2.6 | 0.68 | 5.1
C/C(O)=C(\C#N)c1nc2ccccc2[nH]1 | -12 | -0.7 | -3 | / | 1.1 | / | 2.5
Cn1cnnc1SCC(=O)Nc1ccc(F)cc1F | 4 | -4.0 | -12 | / | 5.1 | 0.68 | 0.3
Cc1ccc(S(=O)(=O)N2CCN(C(=O)COC(=O)c3cccnc3Cl)CC2)c(C)c1 | -1 | -2.0 | / | i | 5.0 | 0.7 | 4.1
Cc1ccc(Cn2c(N3CCN(CCO)CC3)nc3c2c(=O)n(C)c(=O)n3C)cc1 | 0 | 3.8 | -36 | i | 2.0 | 0.7 | 5.3
CCOc1ccc2[nH]c(=O)c(CN(CCO)C(=O)c3ccc(OC)c(OC)c3)cc2c1 | 9 | 5.2 | -4 | / | 0.8 | 0.73 | -80
Cc1cccc(NC(=O)CCN2CCCC(C)C2)c1 (centres undefined) | 0 | 3.2 | -18 | i | 0.9 | 0.68 | 2.0
O=C(c1cccc(F)c1)N1CCN(S(=O)(=O)Cc2ccccc2)CC1 | -5 | -2.1 | -8 | i | -5.3 | 0.7 | -2.0
CSc1ncccc1C(=O)OCC(=O)c1cc(C)n(C)c1C | 0 | -2.5 | / | i | 2.9 | 0.68 | 1.1
COc1cccc(CNC(=O)C2CCCN(S(=O)(=O)c3cccc4nonc34)C2)c1 (centres undefined) | 0 | 2.2 | 22 | / | -1.8 | 0.72 | 0.5
O=C(NCCc1ccccc1)c1ccc2c(c1)OCCCO2 | 6 | -2.1 | -3 | i | 0.0 | / | /
COc1cccc2cc(C(C)N(CCCN3CCOCC3)C(=S)Nc3cccc(C)c3C)oc12 (centres undefined) | 0 | 0.6 | -4 | i | 4.5 | 0.71 | 2.9
CCOc1ccc(CN(C)C(=O)c2ccc(NC(=O)CC3SC(N4CCCC4)=NC3=O)cc2)cc1 (centres undefined) | 7 | 1.2 | 0 | i | -0.9 | 0.68 | 0.3
CCOC(=O)C1(Cc2ccc(OC)cc2)CCN(C(=O)C2CCCO2)CC1 (centres undefined) | -1 | -1.5 | -18 | / | 1.0 | 0.7 | 1.3
NC(=O)CNCCC(c1ccccc1)c1ccccc1 | -4 | 0.0 | -18 | i | 4.1 | 0.67 | -0.2

Further entries follow.
SMILES | B2AR ag | HNF4A DNA FP | ALR H2O2 inh | FGF22 binding | LANA-H2B inh | Ecoli growth | UCH37 DUB inh
NC(=O)c1cc(Cl)ccc1OCC(=O)N1CCCc2ccccc21 | -1 | 1.4 | -2 | i | 2.8 | 0.64 | 1.6
CCn1c(N2CCN(Cc3ccc([N+](=O)[O-])cc3)CC2)nc2ccccc21 | -2 | 0.2 | -21 | i | 1.7 | 0.63 | 0.6
COc1ccc(CC2(CO)CCN(Cc3cc4ccccc4o3)CC2)cc1 | 0 | -0.6 | / | i | -2.3 | 0.66 | 0.2
CN=C1S/C(=C\c2ccc(O)c(OC)c2)C(=O)N1C | 5 | 3.0 | 75 | i | 1.5 | 0.67 | 12
COc1ccc(CCC(C(O)C(F)(F)F)S(=O)c2ccccc2)cc1 (centres undefined) | -4 | -1.0 | -6 | / | 0.5 | 0.73 | 0.2
COc1ccccc1-c1oc2ccccc2c1C#CCCCCO | 6 | 3.9 | -2 | i | -1.0 | 0.69 | -12
CCOC(=O)COc1cc(N)c(Cl)cc1Cl | 0 | -3.6 | -1 | i | 0.3 | 0.63 | 0.2
Cc1ccc(NC(=O)COC(=O)CCn2c(C)csc2=O)c([N+](=O)[O-])c1 | -9 | -5.3 | / | i | -1.0 | 0.65 | 5.3
Cc1cc([N+](=O)[O-])c(NCCCCCCO)c([N+](=O)[O-])c1 | 12 | 0.0 | / | / | 1.1 | 0.68 | 8.8
N#CC1=C(N)NC(SCc2ccc(Cl)cc2)=C(C#N)C12CCCCC2 | -3 | 0.7 | 2 | / | 1.7 | 0.62 | 0.4
Cc1nc([N+](=O)[O-])c(Br)n1CC(=O)c1ccc(F)cc1 | -4 | 0.0 | / | i | / | 0.66 | 3.4
O=C(CN1CCS(=O)(=O)CC1)NNC(=O)C1CCCCC1 | 2 | -1.6 | -14 | i | -3.5 | 0.74 | 1.9
N#Cc1ccc(S(=O)(=O)N2CCC(N3CCCCC3)CC2)cc1 | 10 | -0.5 | -10 | i | 0.4 | 0.7 | -1.1
CCO[C@@H]1OC(C(=O)Nc2ccccc2)=C[C@H](c2csc3ccccc23)[C@H]1CCCO | -6 | -2.1 | -6 | i | 3.5 | / | -1.0
COc1ccc(C(=O)c2nc3c(n2O)CCCCC3)cc1 | -1 | 2.0 | -1 | / | 8.7 | 0.76 | 8.5
COCCn1c(C)cc(C(=O)COC(=O)c2ccc3ncsc3c2)c1C | -1 | -1.1 | -5 | / | 1.6 | 0.71 | -0.2
O=C(CSc1nc2ccccc2o1)Nc1nc(-c2ccccc2)cs1 | -3 | 3.5 | 99* | / | -1.0 | 0.71 | 3.5
Cc1ccccc1Nc1nnc(SCC(=O)NC(=O)NCc2ccco2)s1 | 3 | -18 | -4 | / | 3.4 | 0.71 | 2.9
